Screens deposited in PubChem by several laboratories.
MLL AF4-AF9 inh – inhibitors of human MLL-AF4/AF9 interaction; AlphaScreen, biotin-AF4 peptide binding to FLAG-AF9; 350,000 tested, 0.47% active; P42568; inhibition, % at 10 µM; AID 651704;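 active = every replicate reaching a set inhibition limit, whatever the replicate mean, cut at about 25% in these data; inconclusive = mean inhibition reaches that limit but some replicates miss it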;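 also: 0% = plate neutral control median and 100% = total signal loss; the record names both 10 and 1 µM as test concentration; the first replicate is given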
Vif TR-FRET – HIV-1 Vif–A3G interaction blockers – biochemical, TR-FRET, GST-Vif 1-94, biotin-A3G peptide, dose response retest, primary screen (AID 1117319); one-dose inhibition, %; IC50 in µM for titrated hits; TR-FRET GST-Vif / biotin-A3G peptide binding; higher % means a stronger effect; test concentration not given here; strong numbers were not always called active; 260,000 tested, 0.57% active;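 active = above the screen mean plus three standard deviations and confirmed in dose response; inconclusive = results disagree or hit not tested in dose response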;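 also: Vif residues 1-94 fused to GST binding biotinylated APOBEC3G peptide 110-148; 0% = full assay without inhibitor and 100% = GST in place of GST-Vif; retest series ran down from 100 µM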
Beta cell apopt – blocks beta cell apoptosis; 300,000 tested, 0.8% active; AID 435005; INS-1E cytokine-induced death, ATP luminescence, 48 h; percent of positive-control rescue, neutral wells zero; protection from apoptosis, % (concentration not given with the values);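 active = all replicates at 75% or more, or half of them and the mean; inconclusive = half reach 75% but not the mean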;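 also: 0% = cytokine-treated negative control wells and 100% = positive control rescue; higher means more ATP so stronger rescue from cytokine killing; wells of about 40 µL received 100 nL stock; the first replicate is given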
A1 inh – inhibitors of the anti-apoptotic protein A1, read as caspase activation. MEF A1-2A-BIM cells, Caspase-Glo 3/7 luminescence, 3 h; percent of clofoctol response, vehicle zero. caspase activation, % (concentration not given with the values). 330,000 tested, 0.066% active. AID 2462;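 active = over half of replicate activation scores above 10%, or exactly half above 10 with the replicate mean above 10; inconclusive = replicate mean below 10 yet half the replicates above 10; inactive = over half of replicates below 10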;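 also: wells of about 30 µL received 50 nL stock; many hits fall short of the cut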
Calb FLC – C. albicans growth modulation with fluconazole | growth inhibition, % (concentration not given with the values) | 300,000 tested, 0.57% active | C. albicans CaCi-2 (fluconazole-resistant clinical isolate) + fluconazole, Alamar Blue growth, 48 h;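 active = most replicates above 75%; inconclusive = exactly half above 75%; inactive = most below 75%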;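 also: all wells also contain fluconazole at 8 µg/ml as a sub-toxic cotreatment; 0% = median of DMSO wells and 100% = median of geldanamycin control wells; wells of about 8 µL received 7.5 nL stock; the first replicate is given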
T cruzi inh – T. cruzi replication inhibition. inhibition, % (concentration not given with the values). 300,000 tested, 1.4% active. T. cruzi beta-gal in NIH3T3, luminescence, 90 h. AID 1885;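 active = mean inhibition across valid replicates above about 55%, limit read from the data; inconclusive = mean below that limit but half or more replicates reach it; inactive = mean below it, under half of replicates reach it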;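 also: signal also drops with host cell toxicity which is not excluded here; 0% = plate median of DMSO wells and 100% = zero luminescence signal; higher percent means less beta-gal luminescence so fewer parasites; stock transfer was 50 nL into about 50 µL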
LANA-H2A inh – blocks KSHV LANA binding to histone H2A/H2B; 320,000 tested, 0.6% active; AID 2629; cell-free LANA-H2A/H2B peptide, fluorescence polarization; inhibition, % (concentration not given with the values); in the data active = inhibition mostly above about 10%, no sharp cut-off; inactive = mostly below about 6.7%;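 also: stock transfer was 7.5 nL into about 10 µL; 0% = median of vehicle wells and 100% = median of positive control wells; one replicate is shown; the record names a cut of 25% in any replicate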
Target sequence (Q9QR71 whole entry, looked up): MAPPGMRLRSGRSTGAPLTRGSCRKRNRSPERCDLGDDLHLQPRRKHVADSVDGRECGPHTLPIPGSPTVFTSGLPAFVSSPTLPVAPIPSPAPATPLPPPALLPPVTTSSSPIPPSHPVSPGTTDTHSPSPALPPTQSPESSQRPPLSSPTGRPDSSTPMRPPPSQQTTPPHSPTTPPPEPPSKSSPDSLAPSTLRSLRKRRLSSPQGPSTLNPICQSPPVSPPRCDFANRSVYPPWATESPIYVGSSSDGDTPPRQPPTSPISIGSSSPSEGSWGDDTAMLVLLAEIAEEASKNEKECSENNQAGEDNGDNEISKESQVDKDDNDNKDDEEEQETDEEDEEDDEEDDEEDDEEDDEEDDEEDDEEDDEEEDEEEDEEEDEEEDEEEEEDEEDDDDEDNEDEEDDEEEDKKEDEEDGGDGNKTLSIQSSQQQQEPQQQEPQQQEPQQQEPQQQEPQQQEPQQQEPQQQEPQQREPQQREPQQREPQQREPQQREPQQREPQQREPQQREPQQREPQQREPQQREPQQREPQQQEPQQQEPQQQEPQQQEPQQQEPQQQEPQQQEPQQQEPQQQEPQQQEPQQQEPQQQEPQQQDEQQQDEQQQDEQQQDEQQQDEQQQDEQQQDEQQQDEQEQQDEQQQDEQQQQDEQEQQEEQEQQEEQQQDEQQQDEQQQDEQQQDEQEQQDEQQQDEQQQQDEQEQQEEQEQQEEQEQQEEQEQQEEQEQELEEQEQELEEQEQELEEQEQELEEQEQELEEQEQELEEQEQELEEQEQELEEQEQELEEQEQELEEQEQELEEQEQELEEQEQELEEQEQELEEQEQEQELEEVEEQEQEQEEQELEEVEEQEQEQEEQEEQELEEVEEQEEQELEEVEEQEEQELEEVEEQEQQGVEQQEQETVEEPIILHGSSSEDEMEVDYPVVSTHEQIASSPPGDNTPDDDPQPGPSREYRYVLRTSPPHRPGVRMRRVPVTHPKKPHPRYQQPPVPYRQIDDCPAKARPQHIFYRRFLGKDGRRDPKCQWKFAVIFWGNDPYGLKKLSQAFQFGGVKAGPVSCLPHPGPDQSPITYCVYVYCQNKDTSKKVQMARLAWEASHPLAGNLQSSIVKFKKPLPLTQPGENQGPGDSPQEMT
RanGTP-Imp inh – disruptors of Ran-importin-beta complex formation – biochemical, FRET, CFP-Ran, YFP-importin-beta, homogeneous, primary screen; cell-free CFP-Ran/YFP-importin-beta FRET ratio; inhibition, % (test concentration not listed); 300,000 tested, 1.1% active; AID 2216;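 active = most replicates above 15%; inconclusive = exactly half above 15%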;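 also: 0% = DMSO wells and 100% = Ran loaded with GDP instead of GTP; wells of about 40 µL received 100 nL stock; the first replicate is given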
* hit, by the source's call; ? = inconclusive; · = not tested or not shown; & = joins results of further samples.

SMILES	MLL AF4-AF9 inh	Vif TR-FRET	Beta cell apopt	A1 inh	Calb FLC	T cruzi inh	LANA-H2A inh	RanGTP-Imp inh
Cc1ccc(N(CC(=O)NCc2ccccn2)S(=O)(=O)c2ccccc2)cc1Cl	-1.3	·	0	-0.1	35	9	-7.6	-3.2
O=C(Nc1ccc2nc[nH]c2c1)c1ccco1	·	-2%	1	-2.1	21	-16	1.7	8.4
NNC(=O)CSCc1nc(-c2ccccc2)cs1	-1.1	-6%	-11	-0.3	2	3	-0.6	2.6
COCCn1nnnc1CN1CCC(O)(c2cccc(C(F)(F)F)c2)CC1	-6.4	1%	2	0.7	-18	-1	3.3	-0.5
COc1cc2c(cc1OC)C(c1ccccc1)CC2=O (stereo not drawn)	-2.1	8%	-3	0.1	-1	0	-2.8	8.1
CN1CCN(CCC(=O)Nc2ccc3c(c2)OCO3)CC1	·	17%	-2	-0.3	7	1	1.5	-4.3
Cc1cc(Br)ccc1NC(=O)CN1CCN(c2ccccn2)CC1	0.3	-7%	1	0.4	10	-23	-4.8	3.0
COCCN(C(=O)CSc1nnc(-c2cccs2)n1N)c1c(N)n(Cc2ccccc2)c(=O)[nH]c1=O	-0.2	7%	·	-0.3	4	-8	1.1	?
c1ccc(Sc2cnc3ccccc3n2)cc1	·	5%	1	-1.4	-4	-6	-6.4	-0.4
O=C(CCN1C(=O)c2ccccc2C1=O)NCc1ccncc1	·	17%	5	0.7	-13	-16	1.3	-2.1
Cc1cc([N+](=O)[O-])nn1Cc1noc(C(=O)NCCc2ccccn2)n1	0.5	·	-2	0.0	-3	-3	1.0	-0.4
Cc1ccc(C(=O)Nc2c(C)n(C)n(-c3ccccc3)c2=O)cc1S(=O)(=O)N1CCOCC1	·	·	-6	0.2	0	-8	-1.5	5.3
NC1=NC(=Nc2ccc(S(=O)(=O)N3CCOCC3)cc2)c2ccccc21	-5.4	22%	-5	-0.2	-2	-5	1.8	-0.3
CCOc1cc(/C=N/Nc2nn3cnnc3c3ccccc23)ccc1O	-20	-6%	44	-5.9	5	-7	-3.6	?
CCOC(=O)c1c(C)oc2c(F)c(F)c(F)c(F)c2c1=O	·	1%	·	0.3	36	-17	5.3	1.2
COc1ccc(C2(c3ccc(OC)cc3)NC(=O)N(CC(=O)Nc3ccccc3C)C2=O)cc1	1.4	·	-3	-0.6	5	-5	-5.0	6.0
COc1ccc(OC)c(S(=O)(=O)N(C)CC(=O)N2CCN(c3ccccc3)CC2)c1	·	1%	-1	0.8	3	3	-2.6	3.4
CSC(=Nc1cccc(C)c1)NC#N	-2.4	0%	-6	-0.2	11	-3	-5.1	2.9
CC/C(=N\N=C1\SC(C)C(=O)N1Cc1ccco1)c1ccccc1 (stereo not drawn)	·	·	-9	0.5	0	-2	2.8	-1.1
NC(=O)CC1NC(=O)c2ccccc21 (stereo not drawn)	·	1%	1	-0.2	-5	-2	4.0	?
Cc1cc(NC(=O)CSc2nnc(-c3ccccc3)n2C)no1	-2.0	2%	-4	-0.3	6	4	-4.2	5.3
CCn1cc([N+](=O)[O-])c(C(=O)N2N=C(c3ccc(O)c(OC)c3)CC2c2ccccc2O)n1 (stereo not drawn)	11	-1%	-4	-0.4	28	16	-1.1	-0.1
Cc1cnc(C(=O)OC(C)C(=O)Nc2ccc(Cl)cn2)cn1 (stereo not drawn)	0.3	1%	-1	0.2	7	-6	-1.5	0.2
O=C(CCCSc1nc2ccccc2s1)Nc1nccs1	·	-5%	1	0.6	8	-12	0.4	0.3
Cc1cccc(NC(=S)NNC(=O)CCn2nc(C)c([N+](=O)[O-])c2C)c1	·	6%	2	0.2	11	13	-4.7	1.6
CCOc1ccccc1NC(=O)CSc1nnc(-c2ccco2)n1Cc1ccco1	·	3%	-3	0.5	24	18	4.1	?
CCOC(=O)C1=C(C)NC(=O)NC1/C=C\c1ccccc1 (stereo not drawn)	-5.0	-4%	-5	0.9	-19	-24	-7.5	0.3
CS(=O)(=O)N1CCC(C(=O)Nc2ccc3c(c2)OCO3)CC1	·	0%	3	0.6	5	-5	-1.1	?
COc1ccc(NC(=O)CC2(Cc3ccccc3)CCOC(C)(C)C2)cc1 (stereo not drawn)	·	-4%	2	0.4	-8	-16	1.2	-3.7
COc1ccc(N2CCN(C(CNC(=O)C(=O)NCCc3c[nH]c4ccccc34)c3ccco3)CC2)cc1 (stereo not drawn)	·	9%	-4	-0.1	8	19	0.1	4.9
CCC1Nc2ncnc(N3CCN(c4ccccn4)CC3)c2N(Cc2ccc(Cl)cc2)C1=O (stereo not drawn)	5.3	·	0	1.0	1	42	2.6	-2.0
Cc1ccc(C)c(NC(=O)c2ccc3c(=O)n4c(nc3c2)CCC4)c1	-1.2	-10%	1	-1.4	·	·	-2.1	·
CCOC(=O)C1CCN(C(=O)Nc2ccccc2Cl)CC1	·	?	-4	-0.3	-22	-4	1.9	2.4
O=C(Cn1c2ccccc2c2nc3n(c(=O)c21)CCS3)Nc1ccccc1C(F)(F)F	-3.4	0%	-5	0.4	-4	4	-44	1.7
CC(C)C(NS(=O)(=O)c1cccc2nsnc12)C(=O)N1CCCCC1 (stereo not drawn)	-2.6	-3%	-11	-0.6	-1	4	-3.7	-32
N#CCCn1nc(-c2ccccc2)cc1Nc1ccccc1NC(=O)C(F)(F)F	2.6	·	-3	-0.2	-5	-1	-2.8	-4.0
CCN(CC)c1ccc(S(=O)(=O)N2CCOCC2)cc1NC(=O)CNCc1ccccc1	-0.8	·	2	-1.6	1	16	-1.4	3.6
CC(C)c1ccc(Oc2cccc(C(=O)/C(C#N)=C/N(C)C)c2)cc1	·	13%	3	0.1	-1	11	-0.8	4.9
CC(C)CC(=O)Nc1sc2c(c1C(=O)O)CCCCC2	-3.5	32%	-2	0.1	32	-8	-0.5	-1.3
CC1CN(C(=O)/C=C/c2ccccc2Cl)CC(C)O1 (stereo not drawn)	1.5	4%	0	1.0	5	-16	0.2	?
COc1ccc(C(=O)c2ncc(C(F)(F)F)cc2Cl)cc1	-0.9	-1%	1	-0.3	4	-4	-5.9	-3.0
Cc1nnc(NC(=O)NC(C)N2C(=O)C3C4C=CC(C4)C3C2=O)s1 (stereo not drawn)	1.2	4%&-6%	-1	0.2	-1	3	2.3	1.9
COc1ccc(C)cc1NC(=O)CNc1ccc(C(C)=O)cc1	·	·	4	1.0	0	-3	-0.2	0.0
CCCCn1c(N)c(NCc2ccccc2OC)c(=O)[nH]c1=O	-0.7	0%	-2	0.4	-2	-9	7.2	8.8
Cc1cccc(-c2nc3ccccc3c(=O)n2NC(=O)c2cccs2)c1	5.4	·	·	0.2	-36	4	0.7	1.1
Cc1ccc(CN2CCN(/N=C/c3ccc(C(F)(F)F)cc3)CC2)cc1	·	-13%	-9	-0.4	-5	-1	-2.4	?
O=C(c1ccc(CS(=O)Cc2cccc(Cl)c2)o1)N1CCN(C2CCCCC2)CC1 (stereo not drawn)	1.8	·	-6	1.0	-3	-6	6.3	1.3
COc1ccc(-c2[nH]ncc2CN2CCN(Cc3cccs3)CC2)cc1F	·	2%	5	0.5	-6	10	-6.5	0.2
COc1ccc(N=C2NC(=O)S/C2=C\c2ccc(N(C)C)cc2)cc1	·	11%	5	-1.3	17	3	-0.4	-1.5
COCCn1c(SCc2ccc(Cl)cc2)nc2c1c(=O)[nH]c(=O)n2C	-0.2	·	0	0.2	18	-8	4.3	-1.5
CC(=O)Oc1cc2c(cc1Cl)C(c1cccs1)CC1(CC(C)(C)NC(=S)N1)O2 (stereo not drawn)	0.2	·	6	0.9	8	5	1.9	-2.0
CC(=O)Nc1ccc(S(=O)(=O)NCCC(=O)OCC(=O)c2ccc(Br)cc2)cc1	2.0	-6%	-9	0.4	2	0	-4.1	-1.0
CCCC(C(=O)NC1CCCCC1)N(Cc1ccco1)C(=O)CNS(=O)(=O)c1ccccc1 (stereo not drawn)	·	-5%&-3%	0	0.4	-2	15	3.8	-1.1
CCOc1ccccc1N(CC(=O)Nc1ccccc1F)S(=O)(=O)c1ccccc1	3.1	·	-2	-0.2	19	6	-4.1	-3.9
Cc1cccc(NC(=O)C(Cc2ccccc2)n2cccc2)c1 (stereo not drawn)	5.5	-11%	-2	-0.2	-17	3	0.4	-4.2
COc1ccccc1C(=O)COC(=O)c1nc2nc(C)cc(C)n2n1	-16	-9%	-5	0.4	1	0	-0.3	0.8
O=C(c1ccc(F)cc1)N1CCN(c2cnn(-c3ccccc3)c(=O)c2Cl)CC1	1.1	·	·	0.7	-11	3	2.0	-6.2
CC(NCC(O)COc1ccc2ccccc2c1)c1ccccc1 (stereo not drawn)	7.5	·	4	1.6	12	42	-0.9	0.5
O=C1CCC(C(=O)Nc2cccc(C(F)(F)F)c2)N1 (stereo not drawn)	7.7	·	2	0.0	8	-12	0.5	-2.6
CO[C@@H]1O[C@@H]2COC(c3ccccc3)O[C@@H]2[C@@H](OC)[C@@H]1O (stereo partly drawn)	1.8	·	0	1.7	-2	-15	-1.0	-2.0

Other entries.
SMILES	MLL AF4-AF9 inh	Vif TR-FRET	Beta cell apopt	A1 inh	Calb FLC	T cruzi inh	LANA-H2A inh	RanGTP-Imp inh
COc1ccc(/C=C/C(=O)N(C)C2CCS(=O)(=O)C2)cc1OC (stereo not drawn)	-3.2	10%	0	-0.3	6	3	0.7	0.0
CC(=O)Nc1ccc2c(c1)nc(CCN1CCN(C)CC1)n2C	·	21%	0	-0.8	?	-3	-4.3	-8.2
COc1ccc(-n2c(SCCNCCO)nc3sc4c(c3c2=O)CCCC4)cc1	18	·	0	-0.5	9	40	-2.7	-0.6
CC(C)(C)n1nc2c(c1NC(=O)c1ccccc1)CS(=O)(=O)C2	-2.8	-10%	-3	0.0	13	-7	3.7	0.5
COC(=O)c1ccc(NCN2C(=O)C3C4CCC(C4)C3C2=O)cc1 (stereo not drawn)	-0.7	·	1	-0.1	35	5	-0.8	-2.0
COc1ccc(S(=O)(=O)N(CCc2ccccc2)CC(=O)O)cc1Cl	·	0%	-1	0.6	4	-24	-2.1	2.7
Cc1cc(Nc2cccc(O)c2)c2ccccc2n1	·	-3%	5	-0.4	-4	17	0.6	2.7
CC(=O)C1C(=O)c2c(cccc2[N+](=O)[O-])C1=Nc1cccc(Cl)c1 (stereo not drawn)	3.0	32%	-4	0.1	-5	8	-0.8	-1.2
CCCCCCc1nc(C(N)=O)c2[nH]c(=O)n(-c3ccc(OC)cc3OC)c2n1	1.9	4%	-3	-0.6	-8	10	0.9	-0.9
CCOC(=O)N1CCc2c(sc(NC(=O)C3COc4ccccc4O3)c2C(N)=O)C1 (stereo not drawn)	0.2	·	21	-0.6	5	4	1.1	0.6
CCOc1ccc(-c2nn[nH]n2)cc1OCC	·	3%	-7	0.8	-1	3	-4.0	-4.1
CCCC(NC(=O)Cc1c(C)c2c(cc(C)c3c(C)coc32)oc1=O)C(=O)O (stereo not drawn)	-1.2	-1%	-13	2.0	-8	4	1.4	3.6
